# CtBP-E1A blk: qHTS Assay for Inhibitors of the CtBP/E1A Interaction; CtBP / adenovirus E1A interaction (AlphaScreen); AlphaScreen GST-E1A/His-CtBP binding, 1536-well; hits give low values; control for the full effect not named in the record; activity change, % (no concentration beside the values); 0.49% of 340,000 active; AID 651724, 2012; in the data active means activity change below about -65%; inconclusive means about -30% to -65%; inactive means above about -30%; note: % is set by controls: 0 for no effect and ±100 for the full control effect; compound concentration not given in the record
#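 In 5 uL wells, 23 nL compound meets equimolar GST-E1A and His-CtBP (5X stock 125 nM each) for 2 h, 37 °C. Beads (5X, 50 ug/mL) then 1 h, 37 °C, dark.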
# PINK1 expr mod: A Quantitative High throughput Screen to Identify Chemical Modulators of PINK1 Expression. PINK1 immunofluorescence, high-content cytometry, 24 h. Potency, µM (doses to about 76.6 µM), without a hit: at the top dose activation (PINK1 increase), actives largely listed as activators. 0.2% of 410,000 active; active = well fitted activation curve with a large enough effect; inconclusive = small, poorly fitted or top-dose-only effect; inactive = flat fitted curve, though single readings scatter; cell line not stated here;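 note: potency is the fitted concentration of half-maximal effect; % of control where 0% means no effect; nearly all actives have a fitted effect of over 65% in size; a mitochondrial uncoupler was the plate control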
#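 Compound titrations (5 concentrations, 24 h) on a stable cell line; DMSO and CCCP controls. Endpoint: fixed-cell PINK1 immunofluorescence with mitochondrial, cell and nuclear markers, scanned by microplate cytometer.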
# D2 ag: Beta-Arrestin HTS for Positive Allosteric Modulators of the Human D2 Dopamine Receptor: Agonists; AID 624465, 2012; D(2) dopamine receptor (Homo sapiens), P14416; DiscoveRx PathHunter D2 beta-arrestin, luminescence, 90 min; 100% = 57 uM dopamine signal; 0.084% of 360,000 active; activation, % (concentration not given with the values); in the data active = activation above about 40%; inconclusive = about 15% to 40%; inactive = below about 15%; note: compound concentration not given in the record; the text of the record calls up to 30% inactive
# Target sequence (P14416 whole entry, looked up): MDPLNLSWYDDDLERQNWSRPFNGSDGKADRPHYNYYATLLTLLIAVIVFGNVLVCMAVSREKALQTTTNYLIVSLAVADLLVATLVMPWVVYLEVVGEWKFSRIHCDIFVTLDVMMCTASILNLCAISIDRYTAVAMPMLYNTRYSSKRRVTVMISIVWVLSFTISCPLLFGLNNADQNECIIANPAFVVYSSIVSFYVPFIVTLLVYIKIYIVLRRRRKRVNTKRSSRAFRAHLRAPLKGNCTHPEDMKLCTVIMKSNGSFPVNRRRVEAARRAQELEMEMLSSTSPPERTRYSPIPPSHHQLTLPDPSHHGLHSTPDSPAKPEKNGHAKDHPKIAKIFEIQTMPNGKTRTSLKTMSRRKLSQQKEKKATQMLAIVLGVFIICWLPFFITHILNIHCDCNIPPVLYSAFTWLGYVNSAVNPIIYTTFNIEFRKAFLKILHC
#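 DiscoveRx PathHunter D2 beta-arrestin cells (2,100/well) attached overnight, then compound-stimulated 90 min at 37 C in HBSS/10 mM HEPES/0.1% Tween-20 buffer; beta-galactosidase complementation read by luminescence after 1 h at ambient temperature. Dopamine 57 uM final (EC100) as control.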
# Six1-Eya2 inh: qHTS Assay for Inhibitors of the Six1/Eya2 Interaction | activity change, % (no concentration beside the values) | 0.56% of 360,000 active | AlphaScreen GST-Six1/His-Eya2 binding, biochemical; hits give low values; control for the full effect not named in the record | AID 651725, 2012; in the data active = activity change below about -65%; inconclusive = about -30% to -65%; inactive = above about -30%; note: % is set by controls: 0 for no effect and ±100 for the full control effect; compound concentration not given in the record
#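 AlphaScreen with GST-Six1 and His-Eya2 (5X mix: 250 nM and 500 nM), glutathione donor and nickel acceptor beads; buffer 50 mM Tris pH 8.0, 300 mM NaCl, 1 mM TCEP; 1 h at 37 C in the dark.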
# TRPML1 blocker: qHTS for Inhibitors of the Human Mucolipin Transient Receptor Potential 1 (TRPML1). Mucolipin-1 (Homo sapiens), Q9GZU1. TRPML1-inducible cells, Ca2+ dye fluorescence, FDSS; hits give low values; inhibition of EC80 agonist-evoked calcium signal. activity change, negative = inhibition, % (no concentration beside the values). 0.02% of 390,000 active. AID 624415, 2012; in the data active means activity change below about -50%; inconclusive means about -30% to -50%; inactive means above about -30%;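 note: stimulus is agonist 54-4 at its EC80 concentration; % is set by controls: 0 for no effect and ±100 for the full control effect; compound concentration not given in the record; the text of the record puts the active cut at -80%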
# Target sequence (Q9GZU1 whole entry, looked up): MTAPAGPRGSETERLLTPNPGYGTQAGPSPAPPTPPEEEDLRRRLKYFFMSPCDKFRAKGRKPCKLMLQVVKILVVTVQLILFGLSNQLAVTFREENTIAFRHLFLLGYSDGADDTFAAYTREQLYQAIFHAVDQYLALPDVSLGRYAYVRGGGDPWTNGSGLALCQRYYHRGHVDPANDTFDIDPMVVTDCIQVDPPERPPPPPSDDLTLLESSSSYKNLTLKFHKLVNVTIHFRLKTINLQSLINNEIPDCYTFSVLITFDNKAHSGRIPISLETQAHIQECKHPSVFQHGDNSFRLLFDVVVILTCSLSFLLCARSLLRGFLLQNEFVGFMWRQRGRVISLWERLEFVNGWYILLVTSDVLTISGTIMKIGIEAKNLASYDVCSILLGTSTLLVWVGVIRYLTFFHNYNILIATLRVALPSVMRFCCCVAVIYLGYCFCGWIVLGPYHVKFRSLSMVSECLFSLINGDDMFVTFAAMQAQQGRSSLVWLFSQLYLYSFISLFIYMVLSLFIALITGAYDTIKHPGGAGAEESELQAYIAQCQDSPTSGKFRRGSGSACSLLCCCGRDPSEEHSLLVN
#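 Tet-induced TRPML1-DL cells loaded with Ca8 no-wash calcium dye were read kinetically on FDSS. Compound addition was followed by EC80 agonist 54-4 (4 uM final); inhibition was read over 110 s.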
# TRPML1 ag: qHTS for Agonists of the Human Mucolipin Transient Receptor Potential 1 (TRPML1). activation, % (concentration not given with the values). TRPML1-expressing cells, Ca2+ dye fluorescence, FDSS; host cell line not named in the record; reference of the full effect not given here. 0.12% of 410,000 active; in the data active = activation above about 50%; inconclusive = about 30% to 50%; inactive = below about 30%; note: 0% is about no effect; the text of the record puts the active cut at 80%
#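 Kinetic FDSS Ca2+ read in Tet-induced TRPML1-DL cells (ABD Ca8 dye plus quencher, 45-90 min RT loading): baseline, then compound, then 110 s agonist window; EC80 agonist 54-4 at 4uM final added afterwards for a 110 s antagonist window.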
# * hit, by the source's call; ? = inconclusive; / = not tested or not shown; & = joins results of further samples; [ ] = another dose, or the depositor's remark.
molecule,CtBP-E1A blk,PINK1 expr mod,D2 ag,Six1-Eya2 inh,TRPML1 blocker,TRPML1 ag
Cc1[nH]nc2c1C(c1ccc(-c3ccccc3C#N)o1)C(C#N)=C(N)O2 (stereo unspecified),-21,-1.4%[38.3 µM],-3.3,-10,-8,0.3
Cc1cccc(C)c1NC(=O)C1C2C=CC(C2)C1C(=O)O (stereo unspecified),3,0.4%,1.7,-10,-2,0.0
COc1ccc(CNc2nccs2)cc1OC,5,1.2%,-1.2,2,-11,-0.1
COc1ccc(-c2cc(OC)c3c(C)oc(C)c3c(=O)c2)cc1OC,0,5.1%[38.3 µM],1.2,-8,-1,-0.2
Cc1cc(Br)cn2c(Cc3cccc(F)c3)c(-c3ccc(F)cc3)nc12,6,2.8%,/,6,/,0.0
CCCCCn1c(SCc2cccc(C)c2)nc2c1c(=O)[nH]c(=O)n2C,4,0.2%,-4.7,-4,10,1.0
O=C(Sc1n[nH]c(=O)[nH]c1=O)c1ccccc1,6,0.0%,-0.5,-13,-7,0.4
Cc1n[nH]c(=O)nc1N/N=C/c1ccc(O)c([N+](=O)[O-])c1,-2,-1.6%,-6.8,-3,0,2.4
CCOc1cc(/C=C2/C(=N)N3N=C(CC)SC3=NC2=O)ccc1OC(=O)c1ccco1,2,0.2%,-5.7,-15,19,-0.3
C[C@@H]1CN([C@@H](C)CO)S(=O)(=O)c2ccc(Br)cc2O[C@H]1CN(C)C(=O)c1ccncc1,3,0.6%,-13,5,28,-0.1
Cc1ccc(C(=O)NCc2ccccn2)o1,0,-0.4%,-1.2,1,-2,-0.1
CCOC(=O)C1=CCN(S(=O)(=O)c2ccccc2Br)C1c1ccc(Cl)c(Cl)c1 (stereo unspecified),-11,9.3%,-5.7,10,-12,1.7
O=C(NCc1ccccc1Cl)c1cnc2sc(N3CCCCC3)nn2c1=O,/,1.9%,/,/,-16,-1.0
Cc1ccc(C(=O)Nc2cccc(-c3nc4cccnc4s3)c2C)cc1,/,1.7%,/,/,7,2.1
Cn1c(CNC(=O)c2ccc(Cl)cc2)nnc1SCC(=O)NC1CCCC1,2,-0.5%,-7.3,2,15,-0.5

# Compound profiles, as listed above. Screens in order: CtBP-E1A blk	PINK1 expr mod	D2 ag	Six1-Eya2 inh	TRPML1 blocker	TRPML1 ag
# `Cc1ccc(C(=O)Nc2cccc(-c3nc4cccnc4s3)c2C)cc1` across the screens: /	1.7%	/	/	7	2.1
# `Cc1cccc(C)c1NC(=O)C1C2C=CC(C2)C1C(=O)O` (stereo unspecified) across the screens: 3	0.4%	1.7	-10	-2	0.0
# `CCOC(=O)C1=CCN(S(=O)(=O)c2ccccc2Br)C1c1ccc(Cl)c(Cl)c1` (stereo unspecified) across the screens: -11	9.3%	-5.7	10	-12	1.7

# Additional records follow.
molecule,CtBP-E1A blk,PINK1 expr mod,D2 ag,Six1-Eya2 inh,TRPML1 blocker,TRPML1 ag
O=C(CC(=O)c1ccccc1)Nc1ccccn1,0,0.6%,8.9,1,-13,-0.8
Cc1ccc(S(=O)(=O)N(CC(=O)Nc2ccc(C(N)=O)cc2)C(=O)N2CCN(C)CC2)cc1,1,0.3%,-7.4,-3,-9,0.1
O=C(c1cccs1)N1CCN(c2ccc(Cl)cc2)CC1,-1,-1.4%,-4.4,-3,8,0.2
COc1ccc(NC(=O)C2Cc3c(-c4cccc(NC(C)=O)c4)ccnc3O2)cc1OC (stereo unspecified),-9,2.3%,11,-27,/,-0.1
O=C(COC(=O)c1ccc(S(=O)(=O)NCc2ccco2)cc1)NCCC1=CCCCC1,3,3.3%,-2.5,-3,4,-0.4
CCCN1C(=O)C2(C(C(=O)c3ccc(C)o3)=C(O)C(=O)N2CCCN2CCOCC2)c2ccccc21 (stereo unspecified),6,1.1%[38.3 µM],-2.1,-2,-15,0.2
CCCCC(=O)N(C)c1c(C)nc2ccc(C(=O)Nc3cccc(OC)c3)cn12,-22,-0.8%,-7.7,10,/,-0.1
O=CNCc1nc2ccccc2n1CCc1ccccc1,2,-2.2%,6.3,7,-7,0.9
COc1ccc(NC(=O)c2ccc(CNS(=O)(=O)c3cccc(OC)c3)cc2)cc1,3,6.1%,2.2,3,24,0.7
C[C@@H]1ON(C)[C@H]2C[C@H]3c4[nH]c5ccccc5c4CCN3C[C@@H]12,-12,1.5%,-6.1,-4,-5,0.3
Cc1ccc(NC(=O)Cc2coc3ccc(C(C)C)cc23)cc1Cl,/,9.0%,/,/,-14,1.6
COc1cc(O)c(C(CC(=O)N2CCCC2)c2ccc3c(c2)OCO3)c(OC)c1 (stereo unspecified),-9,-0.8%,3.8,0,11&-11,0.9&0.2
Cc1cc(-c2ccccc2)nc(SCc2ccc(C(=O)O)o2)n1,24,1.7%,-4.1,15,-8,0.1
O=C1CCCC2=C1C(c1cccs1)CC(=O)N2c1ccc(F)cc1 (stereo unspecified),-3,3.2%,-3.2,2,-14,1.0
CC1=C(C(=O)NC(C)C)C2(CCC(C)CC2)OC1=O (stereo unspecified),-1,-0.3%,-6.0,4,-2,-0.1
Cc1ccccc1NC(=O)CSc1nc(-c2ccc(F)cc2)nc2c1Cc1ccccc1O2,/,0.3%,/,/,1,-0.9
Cn1cccc1/C=N/NC(=O)c1ccncc1,0,-0.3%,4.2,16,16,1.4
Cc1ccc(C)c(NC(=O)C2CCN(S(=O)(=O)c3c(C)noc3/C=C/c3cccs3)CC2)c1,/,0.2%,/,/,5,1.1
CCNC(=O)COC(=O)Cc1ccc(Cl)cc1Cl,-14,-0.5%,0.3,0,21,0.3
Cc1ccc(CNC(=O)CN2C(=O)NC(C)(c3cccc(Br)c3)C2=O)cc1 (stereo unspecified),/,3.1%,-2.3,-5,3,0.2
CC(C)NC(=O)N1CCC(n2nccc2NC(=O)CCOc2ccccc2)CC1,8,-0.2%,-1.4,4,-14,-0.4
Cn1c2ccccc2c2nnc(NN)nc21,?,0.1%,-3.2,-18,-7,1.3
O=C(NC(=S)Nc1cccc(C(F)(F)F)c1)c1csnn1,-10,4.6%,-9.0,-12,4,-0.1
COc1ccc2nc(NC(=O)CCNS(=O)(=O)c3ccc4c(c3)oc(=O)n4C)sc2c1,?,4.3%,-0.5,0,2,-0.5
Cc1ccc(NC(=O)CCC(=O)Nc2ccc(C)cc2)cc1,4,2.2%,-2.8,-13,13,0.5
COc1ccc(CCNC(=O)c2cc(-c3ccccc3)on2)cc1OC,2,3.5%[38.3 µM],2.1,2,16,0.1
c1cc(C2OCCO2)cs1,-12,1.5%,-5.8,23,13,-0.2
NC(=O)c1cccnc1Oc1cccc(Cl)c1,2,0.2%,-3.1,8,-24,0.7
CC(C)(C)C(=O)N1CCN(C(=O)c2ccco2)CC1,-16,-2.5%,-2.5,6,-3,-0.5
COCCOc1cc(NC(=O)c2ccccc2)c(Cl)cc1Cl,22,-0.9%,-1.7,10,-3,1.0
O=C(CN1C(=O)NC2(CCCc3ccccc32)C1=O)NCCc1ccc(F)cc1 (stereo unspecified),7,-2.0%,-4.7,2,5,-0.3
CCC(C)n1cnc2c(c1=O)c1nc3ccccc3nc1n2Cc1ccc(OC)cc1 (stereo unspecified),4,2.6%,-7.5,-7,6,1.3
CN(C)S(=O)(=O)c1ccc(C(=O)OC2CCOC2=O)cc1 (stereo unspecified),9,-0.6%,-0.4,-1,16,0.5
O=C(CN(c1ccc(F)cc1)S(=O)(=O)c1ccccc1)NCCSC1CCCCC1,2,?,1.0,-8,14,0.6
CCOC(=O)c1ccc[n+]([O-])c1,7,1.1%,0.7,3,-4,-0.5
COc1cccc(CC(CC(=O)O)C(=O)Nc2cc(C)ccc2C)c1 (stereo unspecified),/,0.8%,0.7,-2,/,/
CC(=O)c1cccc(NC(=O)c2ccc3c(c2)C(=O)N(Cc2cccnc2)C3=O)c1,-6,2.9%,-3.0,2,-9,1.2
O=S(=O)(c1ccccc1)N1CCN(S(=O)(=O)N2CCCCCC2)CC1,-17,3.0%,-11,-1,-10,-0.8
CCc1noc(C)c1C(=O)N1CCCC(N2CCN(c3ccc(F)cc3)CC2)C1 (stereo unspecified),-4,-2.0%,-2.1,13,-7,0.0
O=C(CSC1=NS(=O)(=O)c2cc(Cl)ccc2N1)Nc1cccc(F)c1,7,-2.7%,-2.1,-2,4,0.3
NC(=O)CSc1nnc(-c2cccnc2)n1Cc1ccccc1,-14,/,-2.1,-8,0,0.3
COc1ccc(CC(=O)NC(=S)Nc2ccc(S(N)(=O)=O)cc2)cc1,13,-0.9%,-12,0,21,7.0
CC(C)(C)OC(=O)N1CCC(Cc2cc(-c3ccccc3)no2)(C(=O)O)CC1,12,0.2%,1.3,1,-12,-0.3
COc1cc(OC)cc(C(=O)Nc2ccc(S(=O)(=O)Nc3cc(C)on3)cc2)c1,-11,-0.6%,-0.2,-5,-12,-0.1
CC(=O)Nc1nnc(C2=COCCO2)o1,-4,3.6%,-5.0,-1,14,-0.9
CSc1ccccc1OCc1cc(C(=O)N(C)CC2COCCO2)no1 (stereo unspecified),7,-3.0%,-3.9,-1,-16,0.4
CCOC(=O)CC(NC(=O)c1ccc(C)cc1)c1ccc(OC)cc1 (stereo unspecified),-11,0.6%,-0.8,4,10,0.2
CC(=O)Nc1ccc(S(=O)(=O)NC2(C(F)(F)F)NC(=O)N(C3CCCC3)C2=O)cc1 (stereo unspecified),46,5.6%[38.3 µM],-0.3,0,17,-0.8
O=C(Nc1ccccc1F)c1csc(COCCO)n1,7,-0.1%,-3.8,10,34,0.3
CCCc1nc(SCC(=O)NC2CCCC2)c2ccccc2n1,4,-1.5%,-3.3,6,-10,1.1
CC(=O)Nc1cccc2ccc(O)cc12,-8,2.8%,4.0,-10,3,0.7
O=C(Cn1cnc2cc([N+](=O)[O-])ccc2c1=O)Nc1ccc2c(c1)CCC2,0,-0.3%,5.1,0,-10,-0.8
CC1=C(C(=O)OCc2ccccc2)C(c2cccs2)N2C(=O)CCSC2=N1 (stereo unspecified),-22,6.5%,6.3,-16,-8,3.6
CCOc1ccccc1CNC(=O)C1CCN(C(=O)N2CC(C)Oc3ccc(C)cc32)CC1 (stereo unspecified),1,0.3%,-0.3,1,-8,0.7
Cc1ccccc1-c1nc(S(=O)(=O)c2ccccc2)c(N2CCCC2)o1,/,6.8%,-3.1,6,32,0.7
Cc1nnc(SCc2ccc(C(=O)O)cc2)s1,-8,0.0%,-1.3,8,12,4.4

# Screening data deposited in PubChem by National Center for Advancing Translational Sciences (NCATS).
